# Compound activity (PubChem BioAssay)
# ClpP mod – qHTS Assay for Activators of ClpP; ATP-dependent Clp protease proteolytic subunit (Bacillus subtilis (strain 168)), P80244; AID 651965, 2013; hit rate 1.9% among 340,000; purified B. subtilis ClpP, FRET peptide cleavage, 20 min; Potency, µM (highest dose often 57.5 µM), for inactives: at the highest dose activity change, negative = active; active = well fitted falling curve with a large enough effect; inconclusive = small, poorly fitted or top-dose-only effect; inactive = no such curve, though single readings can be large or run the other way; also: potency is read from the fitted curve at half-maximal effect; the source files actives as falling curves though it sought activators and does not explain the sign; nearly all actives have a fitted effect of over 65% in size; many hits overshoot -100%
# Target sequence (P80244 whole entry, looked up): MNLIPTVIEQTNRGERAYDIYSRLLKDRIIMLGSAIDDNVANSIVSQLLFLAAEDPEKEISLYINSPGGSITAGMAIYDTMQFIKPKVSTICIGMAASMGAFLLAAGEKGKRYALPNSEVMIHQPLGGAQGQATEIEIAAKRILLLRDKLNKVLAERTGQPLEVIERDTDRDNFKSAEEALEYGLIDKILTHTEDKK
#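 FRET quenching reversal measured ClpP activation: 10 microg/mL B. subtilis ClpP at pH 8 with the FRET-FV decapeptide, read at 430 nm after 320 nm excitation. The 20-min minus 0-min signal was scaled between DMSO/no-enzyme wells and ADEP (5.8 microM final).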
# TRPML1 ag – qHTS for Agonists of the Human Mucolipin Transient Receptor Potential 1 (TRPML1); Mucolipin-1 (Homo sapiens), Q9GZU1; TRPML1-expressing cells, Ca2+ dye fluorescence, FDSS; host cell line not named in the record; reference of the full effect not given here; AID 624414, 2012; activation, % (no concentration beside the values); hit rate 0.12% among 410,000; in the data active = activation above about 50%; inconclusive = about 30% to 50%; inactive = below about 30%; also: 0% is about no effect; the text of the record puts the active cut at 80%
#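 Kinetic FDSS Ca2+ read in Tet-induced TRPML1-DL cells (ABD Ca8 dye plus quencher, 45-90 min RT loading): baseline, then compound, then 110 s agonist window; EC80 agonist 54-4 at 4uM final added afterwards for a 110 s antagonist window.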
# Sfp PPTase inh – qHTS Assay for Inhibitors of Bacillus subtilis Sfp phosphopantetheinyl transferase (PPTase). hit rate 3.5% among 310,000. 4'-phosphopantetheinyl transferase ffp (Bacillus subtilis), Q9F4F7. Biochemical Sfp PPTase activity, qHTS. Potency, µM, inactives show max response, negative = inhibition, most hits filed as inhibitors. AID 1490, 2009; active = well fitted inhibition curve with a large enough effect; inconclusive = small, poorly fitted or top-dose-only effect, or another doubt; inactive = no such curve, though single readings can be large or run the other way;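 also: the enzyme is Sfp with the accession as filed and its product quenches rhodamine fluorescence; potency is read from the fitted curve at half-maximal effect; 0% = enzyme reaction without inhibitor and -100% = no enzyme wells; top concentration of the series not given in the record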
#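 Sfp 15 nM + cpd, 15 min RT; start w/ rhodamine-CoA 5 uM, BHQ-2-YbbR 12.5 uM (final); 50 mM Hepes pH 7.6, 10 mM MgCl2, 0.01% NP-40, 0.01% BSA; read 525/598 nm at 0 and 30 min.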
# Menin MLL FP FL – qHTS Assay for Inhibitors Targeting the Menin-MLL Interaction in MLL Related Leukemias: Competition With Fluorescein Labeled MLL-derived Peptide. Fluorescence polarization, fluorescein-MLL peptide displacement from menin. FP activity change, % at 61.4 µM. 290,000 tested, under 10 active; inconclusive = falling polarisation curve, or a change in total fluorescence; inactive = total fluorescence flat and polarisation flat or rising; no compound was filed as active; the % refers to the polarisation; negative = inhibition;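 also: % of control where 0% means no effect; inhibitors lower the polarisation; unlabelled MLL peptide was the positive control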
# TRPV1 potentiator – HTS Assay for Compounds that Act as Potentiators of the Vanilloid Receptor 1; AID 540277, 2011; hit rate 0.02% among 320,000; potentiation, % at 8.33 µM; Transient receptor potential cation channel subfamily V member 1 (Homo sapiens), Q8NER1; TRPV1-expressing cells, Fluo-8 calcium influx, capsaicin EC20 potentiation; host cell line not named in the record; control for the full effect not named in the record; active means potentiation above 80%; inconclusive means 30% to 80%; inactive means below 30%; also: 0% is about no effect
# Target sequence (Q8NER1 whole entry, looked up): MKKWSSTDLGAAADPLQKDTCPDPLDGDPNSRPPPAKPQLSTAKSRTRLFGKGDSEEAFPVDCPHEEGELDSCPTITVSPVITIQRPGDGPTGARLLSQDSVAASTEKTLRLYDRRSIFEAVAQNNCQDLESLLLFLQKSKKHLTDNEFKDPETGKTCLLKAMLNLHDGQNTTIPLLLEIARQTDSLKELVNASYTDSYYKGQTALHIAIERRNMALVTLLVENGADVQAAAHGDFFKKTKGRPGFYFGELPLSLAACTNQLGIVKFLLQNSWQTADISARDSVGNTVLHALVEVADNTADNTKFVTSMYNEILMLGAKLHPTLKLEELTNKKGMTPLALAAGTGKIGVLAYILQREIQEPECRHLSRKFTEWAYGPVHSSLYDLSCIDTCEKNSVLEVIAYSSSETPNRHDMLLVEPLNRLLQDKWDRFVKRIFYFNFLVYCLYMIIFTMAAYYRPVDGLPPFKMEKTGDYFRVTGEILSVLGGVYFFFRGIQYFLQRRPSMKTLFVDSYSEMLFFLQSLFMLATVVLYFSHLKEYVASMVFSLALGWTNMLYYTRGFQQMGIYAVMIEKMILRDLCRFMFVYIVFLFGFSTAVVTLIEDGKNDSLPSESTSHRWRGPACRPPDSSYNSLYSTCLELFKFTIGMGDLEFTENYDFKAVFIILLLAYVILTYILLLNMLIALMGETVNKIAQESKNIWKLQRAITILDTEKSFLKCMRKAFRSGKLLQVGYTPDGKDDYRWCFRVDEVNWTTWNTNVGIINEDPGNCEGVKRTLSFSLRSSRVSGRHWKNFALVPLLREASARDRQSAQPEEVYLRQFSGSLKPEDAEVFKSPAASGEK
#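 Fluo-8 calcium influx in TRPV1-expressing cells, kinetic read (ex 480/em 520 nm). Compound added and read 3 min for agonist activity, followed by capsaicin at EC20 final and 2 min further read for enhancement.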
# TRPML1 inh – qHTS for Inhibitors of the Human Mucolipin Transient Receptor Potential 1 (TRPML1); activity change, negative = inhibition, % (test concentration not listed); TRPML1-inducible cells, Ca2+ dye fluorescence, FDSS; stronger effect = lower value; inhibition of EC80 agonist-evoked calcium signal; hit rate 0.02% among 390,000; AID 624415, 2012; in the data active means activity change below about -50%; inconclusive means about -30% to -50%; inactive means above about -30%;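 also: stimulus is agonist 54-4 at its EC80 concentration; % is scaled to controls: 0 for no effect and ±100 for the full control effect; compound concentration not given in the record; the text of the record puts the active cut at -80%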
#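 Tet-induced TRPML1-DL cells loaded with Ca8 no-wash calcium dye were read kinetically on FDSS. Compound addition was followed by EC80 agonist 54-4 (4 uM final); inhibition was read over 110 s.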
# PINK1 modulator – A Quantitative High throughput Screen to Identify Chemical Modulators of PINK1 Expression; Potency, µM (titrated, usually from 76.6 µM), for the others: at the top dose activation (PINK1 increase), actives largely listed as activators; hit rate 0.2% among 410,000; PINK1 immunofluorescence, high-content cytometry, 24 h; active = well fitted activation curve with a large enough effect; inconclusive = small, poorly fitted or top-dose-only effect; inactive = flat fitted curve, though single readings scatter; cell line not stated here;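 also: potency is read from the fitted curve at half-maximal effect; % of control where 0% means no effect; nearly all actives have a fitted effect of over 65% in size; a mitochondrial uncoupler was the plate control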
#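 Readout is PINK1 immunofluorescence, quantified alongside mitochondrial, cell and nuclear markers by laser-scanning microplate cytometry. Cells from a stable line were exposed to compound titrations (5 concentrations) for 24 hours, with CCCP controls.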
# The depositor's hits bear a star; ? = inconclusive; . = not tested or not shown; [ ] = another dose, or the depositor's remark.
SMILES,ClpP mod,TRPML1 ag,Sfp PPTase inh,Menin MLL FP FL,TRPV1 potentiator,TRPML1 inh,PINK1 modulator
O=C(Nc1ccc(C(=O)N2CCCCC2)cc1)C1CC1,-1.9%,2.8,.,.,.,13.3,-0.2%
O=c1c2[nH]c3ccccc3c2ncn1CCN1CCOCC1,?,-0.3,12.0%,-0.5,.,-9.9,-0.5%
COc1ccccc1C(=O)NC(=O)COC(=O)CN1C(=O)NC(C)(C)C1=O,.,-0.4,.,.,11.9,-15.8,-1.5%
Cc1cc(-c2cc(NC=O)c3ncc(-c4cccc(C(=O)NCCN(C)C)c4)n3c2)cc(C)c1O,-3.0%,-0.7,.,.,.,.,-1.4%
CCc1nc2ccccc2n1CCCCOc1ccccc1C,1.8%,5.8,.,.,.,6.3,26.8%
O=C(NNc1ccccc1)c1sc2ccccc2c1Cl,-2.1%,0.6,.,.,.,.,3.4%
CCc1nnc(NC(=O)c2cc([N+](=O)[O-])ccc2N2CCOCC2)s1,.,0.0,.,.,2.0,3.8,0.7%
CC1CC1C(=O)OCC(=O)Nc1ccccc1Oc1ccccc1 (configuration not stated),0.7%,7.3,9.7%,2.1,0.5,-6.5,-1.1%
Cc1cc(C)cc(N(C(=O)c2ccccn2)C(C(=O)NC2CCCCC2)c2cccs2)c1 (configuration not stated),1.0%,0.2,8.3%,-3.3,-6.7,2.2,2.3%[38.3 µM]
CCOc1ccc(N2C(=O)CC(N)C2=O)cc1 (configuration not stated),-0.6%,-0.3,-23.7%,1.1,-4.7,-15.8,1.8%
CCN(CC(=O)N1CCN(C)CC1)S(=O)(=O)c1ccc(Cl)cc1,-0.5%,0.6,5.1%,0.4,2.3,-14.4,-0.7%
COC(=O)[C@@H](NC(=O)NC(C)CCc1ccccc1)C(C)C (some centres not stated),0.5%,-1.0,17.6%,6.1,-1.3,-2.6,-0.3%
CC(C)(C)c1ccc(NC(=O)CSc2nnc(-c3n[nH]c4ccccc34)o2)cc1,31.6µM*,2.2,-0.8%,1.7,-29.5,13.3,0.5%
CC(=O)NNC(=S)NC(=O)C(c1ccccc1)c1ccccc1,1.2%,10.1,3.7%,0.3,1.5,-22.8,-1.2%
Cc1ccc(-c2cc(C(F)F)n3ncc(C(=O)N4CCCCC4c4cccnc4)c3n2)cc1 (configuration not stated),.,1.1,-1.7%,2.9,-0.3,5.7,2.3%
Cc1ccc(N2NC(=O)/C(=C/c3ccc(-c4ccc(Cl)c(C(=O)O)c4)o3)C2=O)cc1,.,0.5,-0.1%,14.5,-3.4,36.2,-0.9%
O=c1c(O)c(-c2ccccc2)oc2cccc(O)c12,.,.,12.4%,-0.5,.,.,0.6%
C[C@@H]1NC(=O)[C@H](CC(N)=O)NC(=O)c2cc([N+](=O)[O-])cc(I)c2OCC[C@@H](C(=O)NC(CC(=O)O)C(N)=O)NC1=O (some centres not stated),-0.6%,-0.4,-8.0%,-0.2,6.9,11.1,5.2%
Cc1cc2[nH]c(=O)c(=O)[nH]c2cc1S(=O)(=O)NCc1ccc(Cl)cc1,4.2%,1.0,6.2%,-2.3,-4.6,6.3,-3.6%
Cc1ccc(S(=O)(=O)N2CCOCC2)cc1NC(=O)COC(=O)c1ccc2c(c1)OCO2,.,0.7,15.0%,3.2,4.2,-3.5,10.0%
CC12CN3CC(C)(CN(C1)C3c1ccc(Cl)cc1Cl)C2=O (configuration not stated),0.4%,0.0,18.0%,-0.2,?,-9.9,3.4%
COCCn1c(=O)c(CCc2ccccc2)nc2cncnc21,.,.,12.8%,-0.9,.,.,0.4%
CCOC(=O)c1c(C)[nH]c(C(=O)COC(=O)/C=C/c2ccc(OCC#N)c(OC)c2)c1C,-11.1%,0.1,12.0%,-2.2,5.7,-3.1,0.5%
CCOC(=O)C1CCCN(C2=NC(=O)/C(=C/c3ccc(O)c(OCC)c3)S2)C1 (configuration not stated),.,0.9,12.2%,?,15.8,-16.6,0.4%
COc1ccc(S(=O)(=O)N2CCN(Cc3nc4ccc(C)cc4o3)CC2)cc1,-2.0%,0.5,.,.,.,20.2,0.8%
# (cont.)
SMILES,ClpP mod,TRPML1 ag,Sfp PPTase inh,Menin MLL FP FL,TRPV1 potentiator,TRPML1 inh,PINK1 modulator
CCOc1ccc(N=C(NC#N)SC)cc1,-0.6%,0.9,18.4%,-1.4,-1.8,18.1,?
CC(=O)Nc1ccc(S(=O)(=O)Nc2nccc(/C=C/c3ccccc3F)n2)cc1,.,-1.1,10.2%,2.1,-3.2,33.5,-0.5%
O=C(COC(=O)C1(c2ccccc2F)CCCC1)NCc1cccs1,.,1.1,-2.6%,1.0,-16.9,2.9,0.0%
O=C1CC2(CCN(C(=O)c3c(F)cccc3F)CC2)Oc2ccccc21,?,-0.7,.,.,-11.9,6.3,0.6%
COc1ccc(Cc2nnc(N/N=C(\C)c3ccccc3)[nH]c2=O)cc1OC,-2.5%,.,-18.3%,1.1,-15.3,.,2.0%
COc1ccc(-c2csc(NCCc3nc4cc(C(=O)NCCCO)ccc4n3Cc3ccc(C)cc3)n2)cc1,-10.4%,-0.6,.,.,.,9.0,-0.7%
Cc1ccccc1NC(=O)C(=O)NCC1CCCN1S(=O)(=O)c1cccs1 (configuration not stated),1.6%,-0.3,.,.,17.7,8.2,11.4%
CCOC(=O)c1c(NC(=O)COC)sc(C)c1C,-16.2%,-0.5,2.2%,2.7,-13.3,-0.3,-1.0%
Cc1cccc(CNC(=O)CCn2c(=O)c3cccn3c3ccc(F)cc32)c1,-6.0%,2.0,.,.,.,41.3,5.1%
COc1cc(/C=N/NC(=O)c2ccoc2C)ccc1O,-6.9%,-0.2,0.3%,2.5,0.0,-19.9,-0.4%
NC(=O)C1CCN(c2oc(/C=C/c3ccc(F)cc3)nc2S(=O)(=O)c2ccccc2)CC1,4.0%,-0.9,20.3%,1.0,-2.6,-2.1,-0.2%
O=C(c1ccc([N+](=O)[O-])cc1)N1CCN(c2cccc3[nH]ccc23)CC1,-1.3%,-0.8,-2.7%,1.9,-6.4,0.2,1.8%
CCCCc1nnc(NC(=O)c2ccc3c(=O)n4c(nc3c2)CCC4)s1,.,0.3,.,.,?,-0.8,1.4%
Cc1cc(C)n2c(NCc3ccccc3)c(CCc3ccccc3)nc2n1,2.2%,-1.0,.,.,.,.,0.6%
COc1ccc(OC)c(C2=NOC(C(=O)NCc3ccccn3)C2)c1 (configuration not stated),-10.5%,-0.4,17.7%,1.6,11.5,-6.4,-0.6%
CCCc1cc(C(=O)NNC(=S)NC2CCCCC2)cs1,-0.3%,0.4,29.1%,.,2.1,3.6,-1.4%
O=C(CSc1nnc2ccccn12)NCc1cccs1,-14.0%,0.4,-21.0%,4.1,-9.0,0.9,-1.1%
CS(=O)(=O)N(CC(O)CON=C1c2ccccc2-c2ccccc21)c1ccc(F)cc1 (configuration not stated),-3.9%,2.6,-7.7%,-1.7,20.9,-3.0,-7.2%[38.3 µM]
CCOC(=O)c1oc2c(CN3CCN(C)CC3)c(O)c(CC)cc2c(=O)c1-c1nc2ccccc2s1,-0.4%,2.6,.,.,.,5.9,0.3%
N#C/C=C/N1CCC(Cc2ccccc2)CC1,.,0.1,4.3%,-2.1,-5.5,12.7,-0.2%
C=CCn1c(SCc2cccc3ccccc23)nnc1-c1cccnc1,1.8%,-0.5,4.0%,-0.2,-18.0,2.9,3.0%[38.3 µM]
O=C1C2CCCN2C(=O)N1CCCN1CCN(c2ccc([N+](=O)[O-])cc2)CC1 (configuration not stated),1.1%,0.9,19.0%,-0.8,-13.8,20.4,0.5%
Clc1ccc(CN2CCN(c3ncccn3)CC2)cc1,-1.7%,-1.4,16.9%,-3.9,13.8,2.9,1.8%
CCOc1ccc(C2CC(c3c(O)c4ccccc4oc3=O)=NN2c2ccccc2)cc1OC (configuration not stated),.,22.9,-9.6%,?,-1.7,-2.7,1.9%
CCOC(=O)c1cnc2c(OC)cccc2c1Nc1cccc(O)c1,1.8%,4.7,.,.,.,11.5,-1.2%
# Next compounds follow:
SMILES,ClpP mod,TRPML1 ag,Sfp PPTase inh,Menin MLL FP FL,TRPV1 potentiator,TRPML1 inh,PINK1 modulator
Cc1ccc(CN2CCNC(=O)C2CC(=O)NCCCn2ncc3ccccc32)o1 (configuration not stated),-2.7%,0.7,-10.7%,-0.8,-0.3,22.5,-1.1%
O=C1CN(C(=O)CN2C(=O)NC(c3ccccc3)(c3ccccc3)C2=O)c2ccccc2N1,-2.4%,-0.4,.,.,.,-8.1,1.4%
Cc1ccc(-c2nc(CNC(=O)c3ccco3)cs2)cc1,-7.7%,-0.7,-3.8%,.,-1.8,27.6,-1.4%
COc1ccc(C(=O)Nc2nnc(C(C)C)s2)cc1OC,-11.7%,-0.8,.,.,.,-8.3,3.3%
COc1cc(CNCc2cccs2)ccc1OCC(N)=O,-0.8%,0.8,2.0%,6.1,.,-1.2,.
COc1ccc(NC(=O)CN(C)C(=O)CCSc2ccc(C)cc2)cc1,-0.3%,0.6,.,.,-27.9,-6.7,2.3%
COc1ccc(Cl)cc1NC(=O)C1CCN(S(=O)(=O)c2ccc(F)cc2)CC1,-0.6%,1.4,.,.,.,1.5,-1.0%
COc1ccc(-c2csc(N)n2)cc1,-6.3%,-0.4,4.2%,-0.9,-0.2,-13.4,0.8%
COc1ccc(CNC(=O)C(C)OC(=O)c2cccc(N(C)C)c2)cc1 (configuration not stated),-5.2%,3.7,.,.,.,21.9,0.0%
CCS(=O)(=O)NCC(c1cccnc1)N1CCN(c2ccc(OC)cc2)CC1 (configuration not stated),-3.2%,0.1,12.0%,0.6,6.3,17.6,0.9%
CCOC(=O)c1c(NC(=O)COc2ccc3ccc(=O)oc3c2)sc(C(=O)N(C)C)c1C,-11.1%,0.1,-17.9%,.,-0.8,10.1,-0.8%

# Hits appear at their usual frequency; any-hit rate near 4.4%.
